Screening results deposited in PubChem BioAssay by National Center for Advancing Translational Sciences (NCATS).
TRPML1 blocker: qHTS for Inhibitors of the Human Mucolipin Transient Receptor Potential 1 (TRPML1); Mucolipin-1 (Homo sapiens), Q9GZU1; TRPML1-inducible cells, Ca2+ dye fluorescence, FDSS; active compounds read low; inhibition of EC80 agonist-evoked calcium signal; activity change, negative = inhibition, % (concentration not given with the values); actives 0.02% (n = 390,000); in the data active means activity change below about -50%; inconclusive means about -30% to -50%; inactive means above about -30%;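 also: stimulus is agonist 54-4 at its EC80 concentration; % is scaled to controls: 0 for no effect and ±100 for the full control effect; the text of the record puts the active cut at -80%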
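Calcium fluorescence in TRPML1-DL cells induced overnight with Tet: a 110 s read after compound pin addition, then a 110 s antagonist read after challenge with 54-4 at 4 uM final (EC80).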
D2 agonist: Beta-Arrestin HTS for Positive Allosteric Modulators of the Human D2 Dopamine Receptor: Agonists | D(2) dopamine receptor (Homo sapiens), P14416 | actives 0.084% (n = 360,000) | activation, % (test concentration not listed) | AID 624465, 2012 | DiscoveRx PathHunter D2 beta-arrestin, luminescence, 90 min; 100% = 57 uM dopamine signal; in the data active = activation above about 40%; inconclusive = about 15% to 40%; inactive = below about 15%; also: compound concentration not given in the record; the text of the record calls up to 30% inactive
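DiscoveRx PathHunter D2 beta-arrestin cells (2,100/well) attached overnight, then compound-stimulated 90 min at 37 C in HBSS/10 mM HEPES/0.1% Tween-20 buffer; beta-galactosidase complementation read by luminescence after 1 h at ambient temperature. Dopamine 57 uM final (EC100) as control.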
Six1-Eya2 inh: qHTS Assay for Inhibitors of the Six1/Eya2 Interaction; Homeobox protein SIX1 (Homo sapiens) + Protein phosphatase EYA2 (Homo sapiens), …; AlphaScreen GST-Six1/His-Eya2 binding, biochemical; active compounds read low; control for the full effect not named in the record; activity change, % (concentration not given with the values); actives 0.56% (n = 360,000); AID 651725, 2012; in the data active = activity change below about -65%; inconclusive = about -30% to -65%; inactive = above about -30%; also: % is scaled to controls: 0 for no effect and ±100 for the full control effect
Target sequence (O00167 whole entry, looked up): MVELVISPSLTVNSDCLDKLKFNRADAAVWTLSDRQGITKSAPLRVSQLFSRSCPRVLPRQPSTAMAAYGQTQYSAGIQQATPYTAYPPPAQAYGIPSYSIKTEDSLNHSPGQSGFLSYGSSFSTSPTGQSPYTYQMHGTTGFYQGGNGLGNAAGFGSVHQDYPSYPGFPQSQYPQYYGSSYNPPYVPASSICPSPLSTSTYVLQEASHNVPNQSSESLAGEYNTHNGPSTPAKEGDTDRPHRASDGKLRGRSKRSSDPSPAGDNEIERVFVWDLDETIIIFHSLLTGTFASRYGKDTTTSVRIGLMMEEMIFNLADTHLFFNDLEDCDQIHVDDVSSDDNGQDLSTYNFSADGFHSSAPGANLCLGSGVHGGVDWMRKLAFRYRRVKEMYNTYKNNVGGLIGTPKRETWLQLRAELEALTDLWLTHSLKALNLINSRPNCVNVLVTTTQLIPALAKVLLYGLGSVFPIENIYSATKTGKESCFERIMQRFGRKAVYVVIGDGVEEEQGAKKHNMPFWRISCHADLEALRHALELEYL
Target sequence (Q15475 whole entry, looked up): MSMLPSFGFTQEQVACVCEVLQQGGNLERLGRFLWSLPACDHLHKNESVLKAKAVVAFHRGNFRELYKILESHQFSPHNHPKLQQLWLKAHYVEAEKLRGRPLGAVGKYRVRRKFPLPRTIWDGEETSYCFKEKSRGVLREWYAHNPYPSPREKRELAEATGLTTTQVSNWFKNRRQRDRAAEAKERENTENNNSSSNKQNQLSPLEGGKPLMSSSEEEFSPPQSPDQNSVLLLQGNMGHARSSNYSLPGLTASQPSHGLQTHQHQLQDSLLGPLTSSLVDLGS
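Six1/Eya2 binding was read as AlphaScreen signal after compounds were pinned into GST-Six1 plus His-tagged Eya2 (5X stock 250/500 nM) in pH 8.0 Tris/NaCl/TCEP buffer, beads added, then incubated 1 h, 37 C, dark.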
PINK1 expr mod: A Quantitative High throughput Screen to Identify Chemical Modulators of PINK1 Expression; AID 624263, 2012; Potency, µM (highest dose often 76.6 µM), without a hit: at the top dose activation (PINK1 increase), most hits filed as activators; PINK1 immunofluorescence, high-content cytometry, 24 h; actives 0.2% (n = 410,000); active = well fitted activation curve with a large enough effect; inconclusive = small, poorly fitted or top-dose-only effect; inactive = flat fitted curve, though single readings scatter; cell line not stated here;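 also: potency is read from the fitted curve at half-maximal effect; % of control where 0% means no effect; nearly all actives have a fitted effect of over 65% in size; a mitochondrial uncoupler was the plate control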
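PINK1 protein, normally rapidly degraded, was detected by immunofluorescence after 24 hour compound treatment of a stable cell line. Titration data (5 concentrations) came from laser-scanning cytometry, with CCCP-treated wells as controls.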
D2 PAM: Beta-Arrestin HTS for Positive Allosteric Modulators of the Human D2 Dopamine Receptor: Potentiators | potentiation, % (concentration not given with the values) | DiscoveRx D2 beta-arrestin cells, luminescence, 90 min; 100% = 57 uM dopamine signal | D(2) dopamine receptor (Homo sapiens), P14416 | actives 0.23% (n = 360,000); active = potentiation of 50% or more; inconclusive = 30% to 50%; inactive = 30% or less;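 also: compound concentration not given in the record; tested on top of an EC20 dose of dopamine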
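PathHunter D2 cells, attached overnight at 37 deg C, received compound in DMSO plus dopamine at EC20 (50 nM final) for 90 min at 37 deg C. Beta-arrestin recruitment was read as luminescence after 1 h with detection reagent at ambient temperature.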
TRPML1 agonist: qHTS for Agonists of the Human Mucolipin Transient Receptor Potential 1 (TRPML1) | Mucolipin-1 (Homo sapiens), Q9GZU1 | TRPML1-expressing cells, Ca2+ dye fluorescence, FDSS; host cell line not named in the record; reference of the full effect not given here | activation, % (no concentration beside the values) | actives 0.12% (n = 410,000); in the data active = activation above about 50%; inconclusive = about 30% to 50%; inactive = below about 30%; also: 0% is about no effect; the text of the record puts the active cut at 80%
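Calcium fluorescence on an FDSS kinetic reader gave the read-out. Tet-induced TRPML1-DL cells were plated overnight, dye-loaded (Ca8 with quencher, 45-90 min, room temperature, dark), then read 110 s after compound addition, and again 110 s after 4uM final 54-4 (EC80).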
Starred values were filed as active, the others as inactive; ? = inconclusive; . = not tested or not shown; [ ] = another dose, or the depositor's remark.

compound	TRPML1 blocker	D2 agonist	Six1-Eya2 inh	PINK1 expr mod	D2 PAM	TRPML1 agonist
Cc1cc(Cl)ccc1OCC(=O)NC(=S)Nc1ccc(Cl)cn1	-7.2	-1.8	8.7	0.3%	-2.6	-0.7
CC(=O)Nc1ccc(/C=N/NC(=O)c2cc3ccccc3nc2C)cc1	12.2	-3.6	-11.2	4.9%	9.7	0.5
O=c1c(C(c2ccc(Cl)cc2)c2c(O)nc3n(c2=O)CCS3)c(O)nc2n1CCS2	9.0	-1.9	-11.0	3.0%	-12.6	0.1
O=C(NNC(=O)c1ccccc1Cl)c1cc2cc(OC(F)(F)F)ccc2[nH]1	12.5	0.3	-8.4	11.2%	3.0	-0.6
O=S(=O)(c1cccs1)N1CN(C2CCCCC2)c2nc3ccccc3nc21	6.7	0.9	-9.8	2.8%	3.8	-0.5
Cc1ccc(S(=O)(=O)/N=C(/Nc2c(C)n(C)n(-c3ccccc3)c2=O)c2ccc(Cl)cc2)cc1	11.6	-1.7	8.3	0.5%	-1.9	-0.4
CCC(C)c1ccccc1NC(=O)COC(=O)C1=NN(c2ccccc2)C(=O)CC1 (configuration not stated)	-2.8	-1.5	5.1	-1.8%	6.8	0.0
C=CCNC(=O)Nc1ccc(OCC)cc1	-5.0	1.5	4.0	2.1%[38.3 µM]	-4.8	-0.1

compound	TRPML1 blocker	D2 agonist	Six1-Eya2 inh	PINK1 expr mod	D2 PAM	TRPML1 agonist
Cc1c(Br)c(=O)oc2c(Br)c(O)ccc12	16.6	-0.5	1.6	-1.2%	-4.3	-0.5
CCS(=O)CCSC(=N)N (configuration not stated)	-16.5	-1.7	-0.7	2.8%	-19.4	-0.4
Cc1nc2ccccc2n1CC(=O)NC1CCCC1	5.7	0.4	-3.1	1.2%	-11.2	2.9
Cc1ccc(C2(C)NC(=O)N(CC(=O)NNC(=O)c3cc(C)oc3C)C2=O)cc1 (configuration not stated)	-5.3	-3.9	25.1	-1.6%	-3.7	-0.4
O=C(CCCOc1ccccc1)N1CCN(C(=O)c2ccco2)CC1	1.5	-0.1	3.4	3.3%[38.3 µM]	-5.7	-0.4
COc1cc(CNC(C)c2ccccc2)c(Br)cc1OCC(N)=O (configuration not stated)	23.9	0.4	-1.1	18.8%[38.3 µM]	-10.0	1.7
C=CCN1C(=O)CS/C1=C(\C#N)S(=O)(=O)c1ccc(C)cc1	7.9	-3.2	4.1	1.5%	-12.0	2.2
Cn1c2ccccc2c2c(C(=O)NCc3ccco3)cn(C3CCCCC3)c(=O)c21	1.2	-0.3	-0.2	1.5%	-28.4	0.3

compound	TRPML1 blocker	D2 agonist	Six1-Eya2 inh	PINK1 expr mod	D2 PAM	TRPML1 agonist
COc1ccc(CCNC(=O)c2ccc3c(c2)N(Cc2ccccc2F)C(=O)c2ccccc2S3(=O)=O)cc1OC	-1.5	.	.	1.0%	.	1.4
COC(=O)CC1C(=O)NC2CCCCC2N1C(=O)CCl (configuration not stated)	13.0	1.3	2.1	2.1%	-2.6	0.6
O=C(CSc1ncn[nH]1)N1CCN(S(=O)(=O)c2ccc(Cl)cc2)CC1	-4.2	1.2	3.4	7.9%[38.3 µM]	6.5	2.8
CCOc1ccc(C(=O)OCC(=O)Nc2ccc3c(c2)OCCO3)cc1OC	13.0	-2.7	0.3	2.4%	-2.4	-0.3
COc1cc2c(cc1OC)CN(C(=S)Nc1cccc(Cl)c1C)CC2	-4.6	3.5	-15.3	3.2%	-34.4	1.4
Cc1nc(NC(=O)C(C)(C)C)sc1-c1csc(N)n1	5.7	-7.0	-11.9	16.3%	-13.0	0.0
C=CCN1CCN(C(=O)c2oc3ccccc3c2C)CC1	0.3	-3.1	0.0	1.7%	-11.7	-0.4
Cc1cc(OCC(=O)NCCCN2CCOCC2)cc(C)c1Cl	1.2	-2.5	1.4	-3.2%	-4.9	-1.1

compound	TRPML1 blocker	D2 agonist	Six1-Eya2 inh	PINK1 expr mod	D2 PAM	TRPML1 agonist
CCOc1ccccc1C1N=C(N)Nc2nc3ccccc3n21 (configuration not stated)	-3.0	.	.	1.9%	.	0.6
COc1ccccc1CCC(=O)N(C)CC(=O)Nc1ccc(F)cc1	-5.5	-7.5	-4.5	0.0%	-23.2	1.1
CCCCSc1nnc(CCCCCNC(=O)OC(C)(C)C)o1	-7.9	-1.2	11.1	1.1%	-7.1	1.1
Cc1ccc(S(=O)(=O)N2CCN(c3ccc([N+](=O)[O-])c4cccnc34)CC2)cc1	4.8	0.0	-15.2	0.4%	-0.3	0.7
COc1cccc(C(=O)NCCSc2ccc(C)cc2)c1	5.4	-1.0	2.6	3.3%	-11.3	3.3
O=C(/C=C/c1ccc(Cl)cc1)c1cccnc1	13.2	-3.4	6.3	?	-10.5	0.0
CC1(C(=O)NNC(=O)c2ccc([N+](=O)[O-])cc2)CC1(Br)Br (configuration not stated)	-6.2	-5.1	3.8	-1.2%	-27.9	0.1
COc1cccc(NC(=O)c2ccc(N3C(=O)C4CC=C(C)CC4C3=O)cc2)c1 (configuration not stated)	2.5	0.2	-1.8	4.8%	-2.9	-0.5

compound	TRPML1 blocker	D2 agonist	Six1-Eya2 inh	PINK1 expr mod	D2 PAM	TRPML1 agonist
CCOC(=O)c1oc2cc(O)cc(C)c2c1C	5.4	-0.2	-1.7	-1.0%	-18.9	1.2
COC(=O)N1CC(=O)N(OC)C1c1ccc(Cl)cc1Cl (configuration not stated)	-1.5	-1.9	-0.1	0.0%	-3.3	-0.6
C/C(=N/OC(=O)C1CC1c1ccccc1)c1ccccc1 (configuration not stated)	-28.4	-2.9	2.8	0.6%	6.8	1.5
O=C(NC(NC(=S)Nc1ccccc1Cl)C(Cl)(Cl)Cl)c1cccc(Cl)c1 (configuration not stated)	4.3	1.8	0.4	13.3%	3.0	-0.5
CC(C)(C)OC(=O)NNC(=O)Nc1ccccc1C(F)(F)F	1.0	1.9	6.7	-1.8%	-2.6	0.4
CCOC(=O)N1CCN(C(=O)C2CCN(Cc3ccc(O)c(OCC)c3)CC2)CC1	5.0	-3.1	-2.7	-0.1%	-8.5	-0.5
CC(C(=O)NCC1CCCCC1)N(C)Cc1cccc(Cl)c1 (configuration not stated)	7.8	-6.4	6.3	4.8%	0.2	1.9
COc1cc2c(cc1OC)CN(C(=O)c1cc3ccccc3oc1=O)CC2	0.0	-4.6	-1.8	5.4%	-2.1	-1.0

Entries of single compounds as entered above:
COc1cc2c(cc1OC)CN(C(=O)c1cc3ccccc3oc1=O)CC2 is entered as TRPML1 blocker: 0.0; D2 agonist: -4.6; Six1-Eya2 inh: -1.8; PINK1 expr mod: 5.4%; D2 PAM: -2.1; TRPML1 agonist: -1.0
COC(=O)N1CC(=O)N(OC)C1c1ccc(Cl)cc1Cl (configuration not stated) is entered as TRPML1 blocker: -1.5; D2 agonist: -1.9; Six1-Eya2 inh: -0.1; PINK1 expr mod: 0.0%; D2 PAM: -3.3; TRPML1 agonist: -0.6

Following part
compound	TRPML1 blocker	D2 agonist	Six1-Eya2 inh	PINK1 expr mod	D2 PAM	TRPML1 agonist
O=C1COCC(=O)N1CCc1c[nH]c2ccccc12	4.2	-5.6	4.8	-0.4%	-6.3	-0.3
O=C(COCc1cc(-c2ccc3c(c2)OCO3)on1)Nc1cc(C(F)(F)F)ccc1Cl	10.9	.	.	0.9%	.	0.2
COc1ccccc1NC(=O)C(C)OC(=O)C1CC(=O)N(c2ccc3c(c2)OCCO3)C1 (configuration not stated)	8.5	-3.4	19.0	-0.4%	62.6*	0.7
COc1ccccc1-c1c(C)nn2c(C)c(C(C)=O)cnc12	-4.7	-2.2	-1.6	-1.6%	-1.6	-1.3
O=C(CCC(=O)c1cccs1)NNC(=O)c1ccccc1Cl	-6.2	-0.4	-1.5	0.9%	2.0	0.1
COc1ccc(N(CC(=O)Nc2ccc3c(c2)OCCO3)S(=O)(=O)c2c(C)noc2C)cc1	-6.3	-1.0	-2.2	7.4%	-10.0	1.7
CCCNC(=O)c1cc(C2CCCCN2S(=O)(=O)c2ccc(C#N)cc2)on1 (configuration not stated)	.	-2.0	4.2	-0.2%	-6.2	-0.5
O=[N+]([O-])c1c(N2CCN(CCO)CC2)nc2ccccn12	3.9	-1.0	4.5	-0.4%	-45.2	-0.2

compound	TRPML1 blocker	D2 agonist	Six1-Eya2 inh	PINK1 expr mod	D2 PAM	TRPML1 agonist
CCCCn1c(N)c(N(CCC(C)C)C(=O)CSc2nnc3ccccn23)c(=O)[nH]c1=O	13.6	0.8	8.3	0.1%	-8.0	-0.4
Cc1cc(NC(=O)CCCn2c(C)c3cnn(-c4ccccc4)c(=O)c3c2C)ccc1Br	1.9	.	.	-0.4%	.	0.1
O=C(Nc1c(Cl)cc(Cl)cc1C(=O)NCCN1CCOCC1)c1cccc([N+](=O)[O-])c1	13.0	-2.2	3.8	0.9%	-17.2	-0.3
CC12CCC(=O)N1C(C(=O)Nc1ccc(Br)cc1Cl)CS2 (configuration not stated)	-6.1	-4.3	0.1	0.6%	-5.3	0.1
CCn1c(SCC(=O)Nc2cc(C)on2)nnc1-c1c[nH]c2ccccc12	-0.1	0.4	-0.3	0.8%	-4.1	-0.7
CCC(=O)Nc1ccc(C2C(=O)c3ccccc3C2=O)cc1	12.5	-6.3	-1.8	2.0%	-3.1	1.2
CCCC(C)NC(=O)C1CC(=O)N(CCc2ccc(F)cc2)C1 (configuration not stated)	.	-0.7	-3.6	0.2%	3.1	.
CC(C1CC2CCC1C2)n1c(-c2ccco2)n[nH]c1=S (configuration not stated)	1.7	3.5	-4.4	1.7%	-9.5	2.0

compound	TRPML1 blocker	D2 agonist	Six1-Eya2 inh	PINK1 expr mod	D2 PAM	TRPML1 agonist
CN(C)c1cccc(C(=O)N/C=C/n2cnc3cc(C(F)(F)F)ccc32)c1	-22.6	2.4	-15.7	0.3%	-7.6	4.4
COc1ccccc1CNC(=O)c1cnc(N2CCCC2)nc1C	-14.0	.	.	2.2%	.	2.5
Cc1csc(NC(=O)CSc2nnc(Cc3cccn3C)n2-c2ccc(F)cc2)n1	-4.7	-21.6	-14.1	2.6%	-6.0	-0.6
O=C(Cn1cc(COc2ccc(C(=O)c3ccccc3)cc2)nn1)c1ccc(O)cc1	7.3	-5.2	-4.2	2.2%	-12.1	-0.3
O=C(c1ccccc1)c1ccccc1C(=O)N1CCCC1	4.0	-2.1	-2.0	2.5%[38.3 µM]	-5.0	0.6
